Sa growth 42C = S. aureus growth inhibition at 42 and 30 °C, primary screen, LtaS inhibitor project, RN4220, two temperatures; OD600, 20 h, 42 °C; active compounds read low; relative growth, % (test concentration not listed); hit rate 0.53% among 170,000;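 active = growth at 42 °C up to 50% and 20 or more points under that at 30 °C, or under 10% at both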;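 note: 300 nL library stock went into each well; scaled to the means of positive and negative controls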
GIV-Gai inh = inhibitors of GIV peptide binding to Galpha-i3, primary screen, biochemical, fluorescence polarization, FITC-GIV GBA peptide, rat Galphai3. AID 1224905, 2016. 90 min; active compounds read low; scaled: aluminum fluoride 0%, vehicle 100%. hit rate 0.42% among 210,000. percent of control (FP), % (no concentration beside the values);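 active = replicate mean at 85% of control or lower, very high polarization wells dropped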;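 note: wells of about 15 µL received 100 nL stock; the first replicate is given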
Target sequence (P08753 whole entry, looked up): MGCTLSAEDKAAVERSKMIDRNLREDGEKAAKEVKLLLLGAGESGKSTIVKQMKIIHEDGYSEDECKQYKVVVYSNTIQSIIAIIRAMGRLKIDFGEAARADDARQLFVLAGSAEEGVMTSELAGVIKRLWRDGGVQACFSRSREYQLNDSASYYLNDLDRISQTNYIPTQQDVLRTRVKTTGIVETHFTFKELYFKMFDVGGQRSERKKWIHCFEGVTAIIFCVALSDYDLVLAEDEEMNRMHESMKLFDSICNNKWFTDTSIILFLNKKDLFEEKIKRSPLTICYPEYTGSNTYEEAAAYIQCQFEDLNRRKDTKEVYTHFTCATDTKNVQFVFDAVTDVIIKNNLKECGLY
HCMV UL50-53 inh = inhibitors of HCMV UL50-UL53 interaction, biochemical, HTRF; inhibition, % (concentration not given with the values); hit rate 0.15% among 190,000; normalized percent inhibition; HCMV UL50-UL53 nuclear egress complex (human cytomegalovirus);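 active = both replicates at 50% or more, plus weaker picks with an unusually low signal ratio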;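 note: stock transfer was 100 nL into about 20 µL; 0% = negative control wells and 100% = wells with untagged competitor protein; inactives centre near -12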
Sa growth 42C second temp = further read-out of Sa growth 42C, marked with its call; relative growth, %; measured here: growth at 30 °C;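 optical density after 20 h as mean of two plates; 100% = untreated growth and lower means inhibition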
* marks the source's active call; other numbers are inactive results; . = not tested or not shown; & = joins results of further samples. No enrichment for hits. Share with any hit: about 0.82%.

Results follow in this order: Sa growth 42C | Sa growth 42C second temp | GIV-Gai inh | HCMV UL50-53 inh
CC1=CC(=C2C(=O)NC(=S)NC2=O)C=C(C)N1Cc1ccco1
  90 | 87 | 73* | -29
O=C1OCCC1Sc1nc2cc(Cl)ccc2s1 (centres undefined)
  104 | 98 | . | 0
CSc1cccc(NC(=O)CSc2ncn[nH]2)c1
  106 | 93 | 102 | -4
O=C(NCCN=C1NS(=O)(=O)c2ccccc21)c1ccncc1
  84 | 93 | . | 9
C=CCN(CC=C)CCOc1ccc(Cl)cc1
  96 | 93 | 99 | 4
COCCN1C(=O)c2oc3cc(C)c(C)cc3c(=O)c2C1c1ccc(OCC(N)=O)cc1 (centres undefined)
  98 | 99 | 97 | -13
O=C(NCCN1CCN(c2ccccc2F)CC1)c1cc(C2CC2)[nH]n1
  106 | 85 | 99 | -21
Cc1onc(-c2ccccc2)c1C(=O)N(C)CCc1ccccn1
  104 | 90 | 101 | -10
COc1cc(C(CC(=O)NCc2ccc(F)cc2)N2Cc3ccccc3C2=O)cc(OC)c1OC (centres undefined)
  137 | 76 | 102 | .
CCc1ccc(NC(=O)C(CC)n2nc(-c3cc(C)ccc3C)ccc2=O)cc1 (centres undefined)
  . | . | 96 | -17
CCn1c(CNC(=O)c2ccccc2F)nnc1SCc1nc2ccccc2c(=O)[nH]1
  111 | 97 | 101 | -15
COc1ccc(-c2cn3c(n2)sc2cc(C(=O)NC4CCCc5ccccc54)ccc23)cc1 (centres undefined)
  104 | 82 | 106 | .
COc1ccc(Nc2nc(Nc3ccc(OC)cc3OC)nc(N3CCOCC3)n2)c(OC)c1
  117 | 96 | 107 | -20
COc1ccc(C2C(=O)N(C3CCCCC3)CC(=O)N2Cc2ccccc2Cl)cc1OC (centres undefined)
  94 | 99 | 105 | .
Cc1cccc(NC(=S)NCCN2CCOCC2)c1
  93 | 86 | . | -16
N#CCCC1(CCC#N)CCCC(CCC#N)(CCC#N)C1=O
  99 | 86 | 99 | -8
CCCN1C(=O)c2[nH]nc(-c3ccccc3O)c2C1c1ccc(OCc2ccccc2)c(OCC)c1 (centres undefined)
  123 | 82 | 105 | -6
O=C(NCC1CCCO1)c1nc(-c2cccc(C(F)(F)F)c2)no1 (centres undefined)
  108 | 100 | 100 | -34
COc1ccc(S(=O)(=O)N2CCc3cc4cccc(C)c4nc32)cc1
  . | . | 100 | -20
Cc1nc(-c2cccc(C(=O)N3CCN(c4nc5cccnc5o4)CC3)c2)no1
  . | . | 109 | 6
CCOC(=O)C1(C)C=C(Nc2cccc(C(=O)O)c2)C(=O)N1c1cccc(C(=O)O)c1 (centres undefined)
  109 | 88 | 101 | 9
Cc1cc2nn(-c3ccccc3)nc2cc1NC(=O)c1cccc2c(Cl)cccc12
  97 | 89 | 105 | -7
NC(Cc1cccc(-c2ccccc2CP(=O)(O)O)c1)C(=O)O (centres undefined)
  . | . | 106 | -14
CCOC(=O)c1c(-c2ccccc2)csc1NC(=O)c1cc(-c2ccc(Cl)cc2)on1
  108 | 92 | 103 | -9
Cc1ccsc1C=Nc1c(F)c(F)c(F)c(F)c1F
  61 | 62 | . | -36
Cc1ccc(-n2c(=O)c3c(cnn3C)n(Cc3ccc(Cl)cc3)c2=O)cc1
  91 | 109 | 101 | 16
COc1ccc2cc(Br)ccc2c1CC(=O)NCc1ccco1
  95 | 87 | 108 | 0
Cc1n[nH]c(=O)nc1NCC1CCCO1 (centres undefined)
  91 | 88 | 101 | -9
CCN(c1ccccc1)C(CNS(=O)(=O)c1ccccc1)c1ccccc1 (centres undefined)
  89 | 70 | 102 | -12
O=C(Nc1nccc2ccccc12)c1cccs1
  99 | 90 | 101 | -6
COc1ccc(NC(=O)CSc2nccn2Cc2ccco2)c(OC)c1
  101 | 100 | 105 | .
Cc1cc(-c2csc(NC(=O)C3CCCO3)n2)c(C)n1CCc1ccccc1 (centres undefined)
  93 | 79 | . | -37
O=C(CCN1C(=O)/C(=C/c2ccccc2Cl)SC1=S)Nc1ncc(Cc2ccccc2)s1
  . | . | 108 | -14
Cc1nc(N2CCC(C)CC2)c2c(C)c(C(=O)N3CCN(Cc4ccccc4)CC3)sc2n1
  . | . | 105 | -10
N#CCCOC1(C#CC#CC2(OCCC#N)CCCCC2)CCCCC1
  94 | 95 | 102 | -10
N#CC1=C(N)OC(c2cccs2)=C(C#N)C1c1cccs1 (centres undefined)
  102 | 84 | 101 | -25
CC(C)n1cc(/C(N)=N/O)c(=O)n(Cc2ccccc2)c1=O
  105 | 92 | 102 | -40
CN(CCO)S(=O)(=O)c1ccc2c(c1)oc(=O)c1cc(S(=O)(=O)N(C)CCO)ccc12
  79 | 98 | 108 | -3
Cc1cc2c(cc1S(=O)(=O)NCc1ccccc1Cl)OCC(=O)N2
  109 | 79 | 111&110 | -21
COc1cc(S(=O)(=O)N(C)C)ccc1F
  97 | 102 | 105 | -1
CCCC(OC(=O)CN1C(=O)COc2ccccc21)C(=O)NC1CCCC1 (centres undefined)
  115 | 83 | 102 | -1
Cc1nc(-c2ccc(Cl)cc2)sc1CCNC(=O)c1cccs1
  145 | 87 | 105 | .
O=c1c2ccccc2n2c(-c3ccccc3F)nnc2n1CCc1ccccc1
  126 | 87 | 102 | -12
CCc1ccccc1NC(=O)Cn1c(=O)nc(-c2ccccc2)c2ccccc21
  115 | 93 | 107 | .
COc1ccc(C(=O)c2cn(Cc3ccc(C)cc3)c3cc4c(cc3c2=O)OCO4)cc1
  93 | 92 | 102 | 22
CN(C)c1cccc(C(=O)OCCN2C(=O)c3ccccc3C2=O)c1
  107 | 97 | . | -38
CCOc1ccc(NC(=O)N2CCC(CN3CCCCCC3)CC2)cc1
  99 | 85 | 112 | .
Cc1ccc(OCC(=O)Nc2cccc(-c3nc4ccccc4s3)c2)cc1
  109 | 68 | 105 | -12
CCCCN(CC)C(=O)c1cc(OC)c(OC)c(OC)c1
  101 | 94 | 107 | -5
CCC1Oc2cc(C)ccc2NC1=O (centres undefined)
  . | . | 103 | -23
Cc1ccc(-c2cnc3c(-c4ccc(Cl)cc4)c(C)nn3c2N)cc1
  . | . | 98 | -16
Cc1ccccc1NC(=O)c1ccc(F)c(S(=O)(=O)N2CCN(c3ccccc3F)CC2)c1
  118 | 87 | 102 | .
CCOC(=O)c1c(CC(C)C)csc1NC(=O)c1ccccc1OC(C)=O
  112 | 95 | 108 | .
Cc1ccc(-c2noc(-c3cc4c(CO)cnc(C)c4oc3=O)n2)cc1
  . | . | 108 | -64
CCOC(=O)c1c(C)n(-c2ccccc2)c2ccc(OC(=O)C34CC5CC(CC(C5)C3)C4)cc12
  . | . | 101 | -9
CCOc1ccc(-n2c(=O)c3c(C)c(C)sc3n(CC(=O)N3CCC(C)CC3)c2=O)cc1
  103 | 85 | 100&106 | -14&17
O=c1cc(-c2ccc(O)cc2)oc2ccc(O)cc12
  103 | 88 | 102 | -24
CCCCN(CC)C(=O)C1c2ccccc2Oc2ccccc21
  71 | 72 | 96 | 4
Cc1nn(Cc2c(Cl)cccc2Cl)c(C)c1CNCC(c1ccco1)N1CCCC1 (centres undefined)
  98 | 91 | . | -15
CCOc1cc(C2Nc3ccccc3NC3=C2C(=O)CC(c2ccccc2)C3)cc([N+](=O)[O-])c1O (centres undefined)
  . | . | 105 | -96

Next part:
Results follow in this order: Sa growth 42C | Sa growth 42C second temp | GIV-Gai inh | HCMV UL50-53 inh
CC(C)c1ccc(NC(=O)CN2C(=O)CSc3ccc(S(=O)(=O)N4CCCC4)cc32)cc1
  115 | 90 | 108 | .
CC(C)c1cnc2c(c1SCC(=O)N1CCCCC1)c(=O)n(C)c(=O)n2C
  104 | 100 | 106 | .
COc1ccccc1NC(=O)Cc1cccs1
  110 | 85 | 101 | -6
CCOC(=O)C1=C(C)N=c2s/c(=C3\C(=O)N(CC)c4ccccc43)c(=O)n2C1c1ccc(OC(C)=O)cc1 (centres undefined)
  . | . | 105 | -20
CC(C)(C)c1ccc(C(=O)Nc2ccc(F)cc2)s1
  101 | 87 | 109 | 6
CCOC(=O)c1c(-c2cccs2)csc1NC(=O)c1ccccc1
  114 | 90 | 105 | 3
COc1ccccc1CNC(=O)c1ccc2nc(N3CCCCC3)sc2c1
  93 | 92 | 108 | 15
CCOCCCNC(=O)C(CC)N1C(=O)CCCc2ccccc21 (centres undefined)
  . | . | 110 | 1
CC(Oc1ccc(F)cc1)c1nnc(SCC(=O)N2CCNC2=O)o1 (centres undefined)
  99 | 97 | . | -25
Cc1cc(C)nc(NC(=O)COC(=O)/C=C/c2cccs2)n1
  87 | 83 | . | -29
CC1(C)CC(N2CCOCC2)CC(C)(C)N1
  97 | 94 | 100 | -8
CCC(C)Sc1oc(-c2ccco2)nc1S(=O)(=O)c1ccc(C)cc1 (centres undefined)
  94 | 88 | 104 | 6
O=c1cc(-c2ccccc2)nc2cc(-c3ccc(F)cc3)[nH]n12
  85 | 97 | 108&99 | 3&-24
COc1cccc(CSc2nc3cc(OC)c(OC)cc3c3nc(CCn4nc(C)cc4C)nn23)c1
  108 | 84 | 100 | -10
O=C(c1ccc(Cl)cc1)N1CCCCC(Sc2nnc(C3CC3)n2C2CC2)C1=O (centres undefined)
  83 | 82 | . | -28
CSC1=NC2(CCN(C(=O)NC3CCCCC3)CC2)N=C1c1ccc(C)c(C)c1
  86 | 88 | 109 | .
CC(=O)Oc1cccc(/C=C2\N=C(c3ccco3)OC2=O)c1
  103 | 97 | 92 | .
CCOC(=O)C1=C(Nc2ccc(Cl)cc2)OCC1=O
  93 | 80 | 104 | -28
COc1cc(NC(=O)c2cc3nc(-c4ccco4)cc(C(F)(F)F)n3n2)cc([N+](=O)[O-])c1
  . | . | 104 | -14
O=C(CSC1=NC(=O)C(c2ccccc2)C(=O)N1)Nc1nncs1 (centres undefined)
  97 | 92 | 93 | -31
COc1ccc(CC(=O)NC2CC(=O)N(c3ccc(C)c(C)c3)C2)cc1OC (centres undefined)
  94 | 90 | 96 | .
COc1ccccc1Nc1ncnc2c1nc1n2CCCCC1
  101 | 110 | 109 | .
COc1ccccc1OCc1ccc(C(=O)NCc2ccncc2)o1
  103 | 74 | 106 | -9
CCOC(=O)c1cc(-c2ccc(OC)c(S(=O)(=O)NCCN3CCCCCC3)c2)on1
  94 | 89 | 103 | -32
CSc1sc(C(=O)N(C)C)cc1S(=O)(=O)C(C)C
  103 | 89 | 104 | -4
O=C(Nc1nccs1)c1cccc(NS(=O)(=O)c2ccccc2)c1
  107 | 95 | 102 | -17
O=C1CCCC/C1=C/Nc1cccc(N/C=C2/CCCCC2=O)c1
  118 | 73 | . | -23
CCCn1c(=O)c2ccc(C(=O)NC(C)C)cc2n2c(SCC(=O)c3ccc(C)cc3)nnc12
  . | . | 105 | -7
O=C(CCn1nnc2cc(S(=O)(=O)N3CCCCC3)ccc21)N1CCN(c2ccccn2)CC1
  . | . | 99 | 8
CCCC(=O)C1=C(c2ccc(OC)c(OC)c2)N(C(=O)CCC)n2c(C)nnc2S1
  . | . | 105 | -26
O=C(Cc1coc2ccc3ccccc3c12)NCc1ccco1
  69 | 34 | 106 | -22
CC1=NS(=O)(=O)c2cc(S(=O)(=O)CC(=O)Nc3ccc(C(C)C)cc3)ccc2N1
  . | . | 103 | -5
CCNc1ncnc2c1cnn2-c1ccc(C)c(C)c1
  94 | 95 | 97 | -1
Nc1c(N(C(=O)c2ccc(Br)o2)C2CCCC2)c(=O)[nH]c(=O)n1Cc1ccccc1
  80 | 83 | . | -29
O=c1c2sccc2nc(SCc2cc(=O)n3cc(Br)ccc3n2)n1C1CC1
  93 | 81 | 99 | .
CC(NCc1ccc(S(N)(=O)=O)cc1)C(=O)NCc1ccccc1 (centres undefined)
  104 | 89 | . | -7
CC(C)C(=O)NCc1cccnc1
  76 | 89 | . | 4
CCOC(=O)CC(=O)Nc1c(NC)c2ccccc2oc1=O
  90 | 94 | 100 | .
CCOc1ccc(S(=O)(=O)N2CCN(c3nc4ccccc4n4cccc34)CC2)cc1
  . | . | 107 | 5
COc1ccc(C(=O)NC(Nc2cc(C)on2)(C(F)(F)F)C(F)(F)F)cc1
  97 | 89 | 98 | -13
CCOC(=O)c1sc2nc(-c3ccccc3OC)nc(C)c2c1C
  102 | 93 | 100 | -3
O=C(CSc1n[nH]c(Cc2ccccc2)n1)NC1CCCCC1
  93 | 100 | 99 | -1
Cc1cc(C)c(C(=O)CC(N2CCOCC2)C(F)(F)F)c(=O)[nH]1 (centres undefined)
  62 | 57 | 105 | -13
COc1ccc(Nc2n[nH]nc2C(=O)NCCc2ccc(OC)c(OC)c2)cc1
  . | . | 110 | 8

Quoted at random: 7 records from the list.
Results follow in this order: Sa growth 42C | Sa growth 42C second temp | GIV-Gai inh | HCMV UL50-53 inh
O=c1c2sccc2nc(SCc2cc(=O)n3cc(Br)ccc3n2)n1C1CC1
  93 | 81 | 99 | .
CCOc1ccc(S(=O)(=O)N2CCN(c3nc4ccccc4n4cccc34)CC2)cc1
  . | . | 107 | 5
CC(NCc1ccc(S(N)(=O)=O)cc1)C(=O)NCc1ccccc1 (centres undefined)
  104 | 89 | . | -7
CCNc1ncnc2c1cnn2-c1ccc(C)c(C)c1
  94 | 95 | 97 | -1
CCOC(=O)c1sc2nc(-c3ccccc3OC)nc(C)c2c1C
  102 | 93 | 100 | -3
CC1=NS(=O)(=O)c2cc(S(=O)(=O)CC(=O)Nc3ccc(C(C)C)cc3)ccc2N1
  . | . | 103 | -5
Cc1cc(C)c(C(=O)CC(N2CCOCC2)C(F)(F)F)c(=O)[nH]1 (centres undefined)
  62 | 57 | 105 | -13

Assay outcomes deposited in PubChem by ICCB-Longwood Screening Facility, Harvard Medical School.
